# From PubChem
# Rango complex inh = Rango-importin beta binding inhibition | Rango CFP/YFP FRET sensor + importin beta, 45 min | 340,000 compounds, 0.031% hits | AID 540263 | Potency, µM (titrated, usually from 92.2 µM), inactives show at the highest dose inhibition of complex formation; active = rising FRET ratio curve, often small or poorly fitted; inconclusive = mostly compound fluorescence or quenching in the first reads; inactive = flat curves in all reads;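 also: potency is read from the fitted curve at half-maximal effect; 0% = DMSO wells and 100% = buffer wells lacking importin beta; nearly all actives have a fitted effect of over 15% in size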
# Target sequence (Q14974 whole entry, looked up): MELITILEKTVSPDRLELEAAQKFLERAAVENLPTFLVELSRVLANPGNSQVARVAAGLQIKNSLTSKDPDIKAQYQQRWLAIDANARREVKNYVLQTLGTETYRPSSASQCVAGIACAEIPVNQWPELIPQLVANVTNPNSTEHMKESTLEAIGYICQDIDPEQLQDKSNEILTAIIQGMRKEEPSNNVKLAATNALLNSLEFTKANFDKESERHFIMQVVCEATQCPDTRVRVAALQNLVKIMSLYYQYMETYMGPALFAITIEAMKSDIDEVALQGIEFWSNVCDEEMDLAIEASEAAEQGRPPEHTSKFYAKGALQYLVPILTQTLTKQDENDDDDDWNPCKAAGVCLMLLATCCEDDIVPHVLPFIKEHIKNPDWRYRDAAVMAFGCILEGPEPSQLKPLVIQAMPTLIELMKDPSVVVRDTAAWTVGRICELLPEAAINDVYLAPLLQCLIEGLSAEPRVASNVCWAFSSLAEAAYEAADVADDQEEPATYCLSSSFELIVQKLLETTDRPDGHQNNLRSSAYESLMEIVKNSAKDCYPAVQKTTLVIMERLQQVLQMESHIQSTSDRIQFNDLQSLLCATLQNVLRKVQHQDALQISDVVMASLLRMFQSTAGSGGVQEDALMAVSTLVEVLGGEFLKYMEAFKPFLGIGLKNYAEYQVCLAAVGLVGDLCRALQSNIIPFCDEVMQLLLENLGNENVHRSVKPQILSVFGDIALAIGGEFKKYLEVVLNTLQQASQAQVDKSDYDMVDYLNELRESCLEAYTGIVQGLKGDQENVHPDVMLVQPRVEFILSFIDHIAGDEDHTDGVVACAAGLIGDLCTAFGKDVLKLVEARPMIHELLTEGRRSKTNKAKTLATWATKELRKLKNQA
#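 Inhibition scored from the CFP 486 nm/YFP 530 nm FRET ratio 45 min after adding 0.125 microM importin beta to 50 nM Rango biosensor preincubated 5 min with compound (room temperature, PBS with DTT, Tween-20, BSA). No-importin wells as positive control.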
# miR-21 reporter = raises the signal of a miR-21 reporter. AID 2288. 340,000 tested, under 10 active. Potency, µM (highest dose often 38.3 µM), without a hit: at the top dose reporter change, positive = more light. HeLa miR-21 FLuc reporter, luciferase, 48 h; active = well fitted rising curve with a large enough effect; inconclusive = small, poorly fitted or top-dose-only effect; inactive = no such curve, though single readings can be large or run the other way;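 also: % of control where 0% means no effect; miR-21 action dims this reporter so a rising signal means less miR-21 action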
#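 Using DMEM plus 10% FBS, HeLa miR-21-FLuc cells are incubated with test compounds (final up to about 40uM) for 48 hours; firefly luciferase signal is then imaged following reagent-mediated lysis.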
# GLA inh pH 4.5 = blocks human alpha-galactosidase A at pH 4.5 | purified enzyme, 4-MU-alpha-Gal fluorescence, pH 4.5 | activity change, negative = inhibition, % at 105 µM | 230,000 tested, under 10 active | AID 1467; inconclusive = small, poorly fitted or top-dose-only inhibition, or a rising curve; inactive = flat fitted curve, though single readings scatter; no compound was filed as active;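 also: 0% = full activity with enzyme and -100% = basal without enzyme; dose as in the result columns while the protocol names 77 µM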
# Rango release inh = inhibition of RanGTP-driven Rango-importin beta dissociation | Biochemical FRET Rango-importin beta, RanGTP-induced dissociation | Potency, µM (doses to about 46.1 µM), for the others: at the top dose activity change, negative = inhibition | 340,000 compounds, 0.071% hits | AID 540253; active means falling FRET ratio curve, often poorly fitted, with flat reads before Ran was added; inconclusive means other falling curves, or compound fluorescence or quenching; inactive means flat or rising ratio curve;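 also: potency is read from the fitted curve at half-maximal effect; % of control where 0% means no effect; nearly all actives have a fitted effect of over 45% in size; -100% = wells without RanGTP and RCC1; the record marks most hits as doubtful in a second field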
#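 FRET read at 45 min, room temperature: inhibitors block the CFP/YFP signal rise when RanGTP (0.6 uM Ran, 2 mM GTP, 0.2 uM RCC1) frees Rango (0.1 uM) from importin beta (0.25 uM). Pre-read after 5 min compound exposure flags interference.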
# Active calls of the source: *; ? = inconclusive; / = no result given; & = joins results of further samples. This is a subset; count on the stated rates, not on these rows.
no.	Compound	Rango complex inh	miR-21 reporter	GLA inh pH 4.5	Rango release inh
1	COc1ccc(S(=O)(=O)Nc2cc(OC)c(NC(=O)c3ccco3)cc2OC)cc1	-3.9%	-4%	-12	-8%
2	COc1ccc(OC)c(S(=O)(=O)n2ccnc2C)c1	-1.4%	0%	5	-1%
3	CC(NC(=O)CN(C)S(=O)(=O)c1ccc(Br)s1)c1ccccc1 (stereo not drawn)	-1.1%	-10%	/	7%
4	COC(=O)C1CCN(C(=O)NC2CCCCC2)CC1	-1.5%	-12%	-1	4%
5	O=C(CN1C(=O)c2ccccc2S1(=O)=O)N1CCN(c2ccccc2F)CC1	0.3%	1%	-3	-12%
6	CCCSc1nnc(N2C(=O)C(O)=C(C(=O)c3ccco3)C2c2ccccc2F)s1 (stereo not drawn)	?	-5%	/	?
7	Cc1ccc(NC(=O)[C@H](NC(=O)[C@@H]2Cc3ccccc3CN2)c2ccccc2)c(C)c1	-0.9%	-10%	/	-12%
8	O=C(Nc1ccc2c(c1)OCCO2)c1c(F)cccc1F	2.9%	-46%	-2	7%
9	COc1ccc(-c2noc(CCC(=O)Nc3cc(Cl)c(OC)cc3OC)n2)cc1	-2.1%	-27%	-3	4%
10	NNC(=O)c1sc(-c2ccc(Cl)cc2)cc1N	?	1%	4	-23%
11	CCCOC(=S)N/C(=N\S(=O)(=O)c1ccccc1)c1ccccc1	-1.2%	-2%	4	10%
12	CCOC(=O)C1=C(C)N(C)C(=S)NC1c1ccc(Cl)cc1 (stereo not drawn)	4.9%	0%	-9	-11%
13	CC(=O)Nc1ccc(NC(=S)NC(=O)c2ccc([N+](=O)[O-])c(C)c2)cc1	0.9%	-9%	-6	-13%
14	CSCCNC(=O)c1ccc2nc(Cc3ccccc3F)oc2c1	-2.7%	-50%	/	1%
15	O=C(COC(=O)COc1ccc(Cl)cc1)NC1CCCCC1	1.1%	-4%	3	-1%
16	O=C1c2cc(O)c(O)cc2S(=O)(=O)C1c1ccccc1 (stereo not drawn)	0.0%	/	/	0%
17	Cc1csc(SCC(=O)N2CCCC2)n1	-1.7%	-10%	4	15%
18	CCOC(=O)c1c(C)[nH]c(C)c1C(=O)COC(=O)c1cccc(C)c1O	-0.9%	-9%	-3	-13%
19	N#CCCSCc1ccc(C(=O)O)o1	10%	0%	2	4%
20	COc1ccc(Cl)cc1S(=O)(=O)N1CCN(C)CC1	-1.9%	-2%	-2	-9%
21	COc1cc(/C=C/C(=O)O)cc(S(=O)(=O)Nc2cccc(S(=O)(=O)N3CCOCC3)c2)c1OC	6.8%	-1%	-2	-29%
22	Cc1csc(C(=O)NCC(=O)NNC(=O)c2cccc(Cl)c2)c1	4.4%	-1%	/	0%
23	CCc1ccc(C(=O)NNC(=O)c2ccc(=O)n(C)n2)cc1	4.7%	-5%	/	-12%
24	CCC(C(=O)NCCCc1ccccc1)c1ccccc1 (stereo not drawn)	7.1%	-5%	-5	8%
25	O=C(N/N=C/c1cccn1-c1ccccc1)c1ccncc1	0.2%	0%	-6	3%
26	O=C(NCCc1csc(-c2cccnc2)n1)c1ccccc1Br	0.3%	-7%	-10	21%
27	COc1cc(/C=C/C(=O)NCC2CCCCC2)cc(OC)c1OC	-2.2%	-1%	/	-7%
28	O=C(CN1CCN(c2ccccc2F)CC1)N1CCc2ccccc21	-2.4%	-6%	/	-5%
29	O=C(O)CCCn1cc(NC(=O)COc2ccccc2[N+](=O)[O-])cn1	3.9%	1%	-6	7%
30	O=C1C2CCCN2C(c2ccccc2)N1c1ccc(Cl)cc1 (stereo not drawn)	-1.3%	22%	-4	1%
31	CCOc1ccccc1NC(=O)CCS(=O)(=O)c1cccc2nsnc12	-2.6%	-2%&-7%	/	-4%
32	O=C(CCN1CCOCC1)NNC(=S)NC(=O)c1ccc(Br)cc1	-1.4%	-12%	4	-7%
33	O=C(O)c1cc(-c2cccc3ccccc23)nc2ccccc12	0.2%	-17%	/	-6%
34	CC(C)Oc1ccc(C(=O)NC2CCCCC2)cc1	-0.3%	-51%	4	4%
35	O=C(OCC(=O)N(Cc1ccccc1)C1CCS(=O)(=O)C1)c1cc2c(s1)CCCC2 (stereo not drawn)	-0.2%	0%	-17	-14%
36	CC(=O)/C(N=Nc1cc2c(c([N+](=O)[O-])c1C)C(C)(C)CC2(C)C)=C(\C)O	3.8%	2%	-39	0%
37	O=C1Nc2cccnc2Sc2ccccc21	-2.5%	27%	-6	-14%
38	CC(C)Cc1ccc(CN2CCCC(NC(=O)c3ccoc3)C2)cc1 (stereo not drawn)	-0.3%	20%	/	1%
39	Cn1c(N)c(C(=O)COC(=O)c2ccc(Cl)c(S(=O)(=O)N3CCCC3)c2)c(=O)n(C)c1=O	4.1%	-7%	9	5%
40	CCN(CC)C(=O)Cn1cc(C(=O)C(=O)N2CCN(c3ccc([N+](=O)[O-])cc3)CC2)c2ccccc21	-1.8%	8%	/	-7%
41	CCOC(=O)C1=C(C)NC(=O)NC1/C(C)=C/c1ccccc1 (stereo not drawn)	0.5%	-10%	-2	-14%
42	CSc1cccc(NC(=S)N(CCCN2CCC(C)CC2)Cc2cccs2)c1	-4.1%	12%	-2	0%
43	C=CCN(CC=C)Cc1cc(=O)n2c(-c3ccccc3)csc2n1	?	-5%	/	-1%
44	COc1cc(OC)nc(NC(=O)COC(=O)C2CCCCC2)n1	-0.7%	0%	4	-9%
45	O=c1[nH]cnc(O)c1C1C=CC=CC=C1	4.9%	/	/	37%
46	CCCCCCc1cc2cc(C(N)=O)c(=N)oc2cc1O	/	-6%	?	/
47	O=C(CN1C(=O)COc2ccccc21)NC1CCCC1	-1.6%	-6%	/	-11%
48	C[N+](C)(C)CCOP(=O)(O)OP(=O)([O-])OC[C@H]1O[C@@H](n2ccc(N)nc2=O)[C@H](O)[C@@H]1O	-1.8%	-17%	/	-29%
49	COc1cc(NC(=O)CN2CCN(CC(=O)Nc3ccccc3OC)CC2)cc(OC)c1	-0.1%	-8%	/	12%
50	Cc1nc2nc[nH]n2c(=O)c1NC(=O)c1c(-c2ccccc2Cl)noc1C	0.9%	-3%	-4	1%
51	Cc1ccc(C(=O)OCC(=O)Nc2ccccc2C(F)(F)F)cc1S(=O)(=O)N1CCCCC1	3.5%	/	/	-1%
52	O=C(Cn1cc(-c2nnnn2-c2ccc(Cl)cc2)c(=O)c2ccccc21)c1ccccc1	3.1%	0%	-2	-4%
53	N#Cc1cc([N+](=O)[O-])ccc1NC(=O)COC(=O)c1cnccn1	0.1%	/	/	-8%
54	COc1ccc(C)cc1Nc1n[n+](-c2ccccc2)c(-c2cccc(Cl)c2Cl)s1	2.1%	12%	/	36%
55	COc1ccc(-n2cc(C(=O)c3cc(Cl)ccc3O)cc(C#N)c2=O)cc1	?	14%	5	?
56	CCCn1nnnc1NC(=O)COc1ccc(CC)cc1	-0.8%	-7%	-3	1%
57	C/C(=N/Nc1ccnc2cc(Cl)ccc12)c1ccc(N)cc1	?	/	/	?
58	COc1ccc(S(=O)(=O)N2CCCN(CC(=O)Nc3cc(NC(C)=O)ccc3OC)CC2)cc1	-0.5%	-6%	-1	25%
59	O=C(NCCc1ccc(Cl)cc1)C12CC3CC(CC(O)(C3)C1)C2	3.2%	-22%	/	9%
60	O=C(Nc1cccc(Cl)c1)C1CCCN(C2=NS(=O)(=O)c3ccccc32)C1 (stereo not drawn)	-4.1%	/	/	19%

# (listing goes on)
no.	Compound	Rango complex inh	miR-21 reporter	GLA inh pH 4.5	Rango release inh
61	CC(C)c1nc(N2CCCC2)c(C#N)c2c1CCCC2	0.1%	-6%	1	-1%
62	CCN(CC)c1ccc(NC(=O)CN2CCN(CC(=O)Nc3ccc(OC)cc3)CC2)cc1	3.6%	0%	/	-8%
63	O=C(NCc1ccccn1)c1cc2ccccn2n1	2.3%	-24%	4	19%
64	COCc1nnc(NC(=O)C2CC(=O)N(C3CCCCC3)C2)s1 (stereo not drawn)	-2.2%	0%	/	1%
65	COc1ccc(-c2nn(-c3ccccc3)cc2CNCCN2CCOC2=O)c(F)c1	-2.6%	-22%	3	-14%
66	CN(c1ccc(OCC(=O)Nc2ccccc2C(=O)O)cc1)S(=O)(=O)c1ccc(Cl)cc1	?	/	/	1%
67	COc1ccc(NC(=O)C2CCN(c3cnccn3)CC2)cc1Cl	7.9%	-12%&-4%	/	40%
68	NC(=O)CC(O)c1cccc(Cl)c1 (stereo not drawn)	-0.2%	-7%	1	-4%
69	CCCNC(=O)NC(=O)COC(=O)c1ccc(S(=O)(=O)N(C)c2ccccc2OC)cc1	3.0%	23%	-4	4%
70	CCN(CC)C(=O)Cn1cc(/C=C(\C#N)C(=O)N2CCN(c3ccccc3)CC2)c2ccccc21	?	5%	-2	?
71	CCOC(=O)c1c(S(=O)(=O)Nc2ccccc2OCC)c(C)n(C)c1C	-5.3%	0%	/	22%
72	CN(CC(=O)Nc1cccc(F)c1)C(=O)C1CCN(S(=O)(=O)c2ccc3c(c2)OCCO3)CC1	-4.5%	/	/	-10%
73	CC(=O)c1c(C)nc(Nc2nc3ccccc3s2)nc1C	-3.0%	-66%	8	2%
74	COc1ccc(NC(=O)C(NS(=O)(=O)c2cccs2)C(C)C)cc1Cl (stereo not drawn)	-1.9%	1%	/	13%
75	C/C(N)=C(/C#N)C(=O)COC(=O)CNS(=O)(=O)c1ccc2ccccc2c1	-0.7%	-1%	2	0%
76	CCOc1ccccc1N1CCN(C(=S)NCc2ccco2)CC1	?	-8%	13	-7%
77	CCOC(=O)C1=C(C)NC(c2cccs2)C(=O)N1 (stereo not drawn)	-3.1%	3%	-1	-7%
78	Cc1cc(C)cc(NC(=S)NCCN2CCOCC2)c1	0.2%	/	/	-2%
79	COc1ccc(S(=O)(=O)Nc2ccc(Cl)cn2)cc1	-0.8%	-2%	/	-1%
80	CC(=O)c1cccc(NC(=O)C(NC(C)C)c2ccccc2)c1 (stereo not drawn)	-2.9%	-1%	-3	2%

# A second format for three compounds above.
nr	Rango complex inh	miR-21 reporter	GLA inh pH 4.5	Rango release inh	SMILES
78	0.2%	/	/	-2%	Cc1cc(C)cc(NC(=S)NCCN2CCOCC2)c1
77	-3.1%	3%	-1	-7%	CCOC(=O)C1=C(C)NC(c2cccs2)C(=O)N1 (stereo not drawn)
72	-4.5%	/	/	-10%	CN(CC(=O)Nc1cccc(F)c1)C(=O)C1CCN(S(=O)(=O)c2ccc3c(c2)OCCO3)CC1

# The listing continues.
no.	Compound	Rango complex inh	miR-21 reporter	GLA inh pH 4.5	Rango release inh
81	CC1=NN(C(=O)Cc2ccccc2)C(O)(c2cccnc2)C1 (stereo not drawn)	0.9%	-2%	-15	11%
82	N#Cc1ccc(OCC(O)CN2CCN(CC(O)COc3ccc(C#N)cc3)CC2)cc1 (stereo not drawn)	4.8%	0%	/	6%
83	CCOC(=O)CNC(=O)/C=C/c1ccc2c(c1)OCO2	3.8%	-32%	4	3%
84	CSc1ncccc1C(=O)OCc1cccc([N+](=O)[O-])c1	-6.8%	1%	4	-6%
85	Cc1c(CC(=O)O)c(=O)oc2cc3c(cc12)CCC(C)(C)O3	1.9%	0%	/	15%
86	Cc1ccc(S(=O)(=O)Cc2ccc(C(=O)N3CCCCC3C)cc2)cc1 (stereo not drawn)	0.7%	0%	/	6%
87	Cc1cc2c(cc1C)NC(c1cccnc1)C1=C(CC(C)(C)CC1=O)N2 (stereo not drawn)	0.0%	-26%	-1	14%
88	Cc1ccc2oc(C(=O)N3CCC(C(N)=O)(N4CCCCC4)CC3)c(C)c2c1	1.4%	4%	/	-27%
89	CN(C)CCN(CC1CCCN(Cc2ccccc2F)C1)C(=O)c1ccc(Cl)cc1 (stereo not drawn)	?	2%	/	14%
90	Fc1ccc(N2CCN(C(=S)NCC3CCCO3)CC2)cc1 (stereo not drawn)	0.0%	3%	2	-23%
91	Cc1ccc(CNS(=O)(=O)c2c(C)[nH]c(C)c2C(=O)N2CCCC2)cc1	-5.1%	-3%	/	-2%
92	Cc1ccc(/C=C2\C(=O)NC(=O)N2C)o1	1.1%	-6%	/	-3%
93	CN(c1ccccc1)S(=O)(=O)c1ccc(NC(=O)c2ccc(-c3ccccc3)cc2)cc1	?	22%	-5	10%
94	NCC(=O)NCC(=O)NC[C@H]1O[C@@H](n2ccc(=O)[nH]c2=O)[C@H](O)[C@@H]1O	-3.8%	/	/	3%
